Screens from PubChem BioAssay.
AmpC nodet inh: inhibitors of E. coli AmpC beta-lactamase without detergent | AmpC nitrocefin hydrolysis, absorbance 480 nm, no detergent; potencies from a single point are estimates | 71,000 tested, 1.8% active | P00811 | Potency, µM (titrated, usually from 28.7 µM), for inactives: at the highest dose activity change, negative = inhibition; active = falling curve, for most hits resting on a single point; inconclusive = weak or doubtful change; inactive = flat or rising curve; further: % of control where 0% means no effect; about half of the hits show no inhibition at the top dose; a quarter of the inactives give rising signals
Target sequence (P00811 whole entry, looked up): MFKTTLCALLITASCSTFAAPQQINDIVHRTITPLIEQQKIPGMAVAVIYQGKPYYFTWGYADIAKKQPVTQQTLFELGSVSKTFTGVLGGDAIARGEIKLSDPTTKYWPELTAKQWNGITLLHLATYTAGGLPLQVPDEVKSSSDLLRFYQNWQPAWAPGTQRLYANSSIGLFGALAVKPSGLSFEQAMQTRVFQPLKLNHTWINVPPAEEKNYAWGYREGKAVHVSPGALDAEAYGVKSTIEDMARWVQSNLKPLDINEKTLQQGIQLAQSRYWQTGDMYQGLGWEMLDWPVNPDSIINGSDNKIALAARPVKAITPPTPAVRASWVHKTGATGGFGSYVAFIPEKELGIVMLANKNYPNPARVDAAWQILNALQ
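AmpC in 20 mM phosphate buffer pH 7.0 was preincubated 15 min at room temperature with compounds. Nitrocefin (800 uM stock) was then added and hydrolysis followed at 480 nm every 20 s for 4 min.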
Numbers without * were called inactive; ? = inconclusive; & = joins results of further samples; [ ] = remark or other dose. Potency means the concentration at half of the fitted maximal effect. An excerpt; the hit share may differ from the screen's.

SMILES	AmpC nodet inh
O=C(CSc1nnc(-c2cccs2)n1-c1ccccc1)N1CCc2ccccc21	-6%
CCn1c(N2CCN(C(=O)C34CC5CC(CC(C5)C3)C4)CC2)nc2ccccc21	-13%
CCN(CCCn1c(=S)[nH]c2ncccc2c1=O)c1ccccc1	-22%
O=C(CN1C(=O)NC2(CCCCCC2)C1=O)N1CCC(Cc2ccccc2)CC1	70%
Cc1ccc(-c2csc(N3CCC(NS(=O)(=O)c4ccc5c(c4)OCCO5)CC3)n2)cc1	-14%
C[C@@H]1[C@@H](C)N1C[C@H](O)Cn1ccnc1[N+](=O)[O-] (some centres undefined)	11%[5.75 µM]
O=C(Oc1ccc2[nH]cc(CCN3C(=O)c4ccccc4C3=O)c2c1)c1ccco1	-15%
O=C1C2CCCN2C(c2ccccc2)N1c1nccs1 (centres undefined)	0%
Cc1cc(NC(=O)C2CC2)ncc1NC(=O)C12CC3CC(CC(C3)C1)C2	20%
CCOC(=O)C1CCCN(C(=O)c2ccc3c(c2)NC(=O)C(N2CCOCC2)S3)C1 (centres undefined)	58%
CCOC(=O)CNC(=O)CSc1nc2cccnc2n1Cc1ccccc1	37%
COC(=O)CSc1nnc(-c2ccc(S(=O)(=O)N3CCC(C)CC3)cc2)o1	23%
Cc1ccc(C(C(=O)NC2CCCC2)N(Cc2cccnc2)C(=O)c2snc(C(N)=O)c2N)o1 (centres undefined)	27%
N[C@@H](CCCP(=O)(O)O)C(=O)O	9%
Cn1cccc1-c1nc2ccc(NC(=O)c3cccs3)cc2[nH]1	-14%
CC(=O)NCC(=O)N(c1c(C)n(C)n(-c2ccccc2)c1=O)C1(C(=O)NC2CCCC2)CCCCC1	34%
CC1CCCN(c2nc3c(c(=O)n(C)c(=O)n3C)n2CCSc2nc3ccccc3s2)C1 (centres undefined)	111%
N=c1n(CCO)c2ccccc2n1Cc1ccccc1Cl	44%
c1cc(-c2noc(-c3ccc4c(c3)OCO4)n2)ccn1	2%
O=C(NCCc1ccc(Cl)cc1)C1CCN(S(=O)(=O)c2cccc3nonc23)CC1	-19%
CCc1ccc2[nH]c(=O)c(CN(Cc3ccco3)S(=O)(=O)c3ccc4c(c3)OCCO4)cc2c1	-18%
Cc1cccc(N(CC(=O)NCc2ccc3c(c2)OCO3)C(=O)CCC(=O)Nc2ccccn2)c1C	57%
COc1ccc(OC)c(CNC(=O)COc2cc(=O)n(C)c3ccccc23)c1	63%
O=C(Nc1ccc2ncccc2c1)Nc1ccc2ncccc2c1	-6%[5.75 µM]
O=C(NCCCCCNC(=O)c1ccco1)c1ccco1	17%

Given as a markdown table: 2 of the compounds above
| structure | AmpC nodet inh |
| --- | --- |
| COC(=O)CSc1nnc(-c2ccc(S(=O)(=O)N3CCC(C)CC3)cc2)o1 | 23% |
| C[C@@H]1[C@@H](C)N1C[C@H](O)Cn1ccnc1[N+](=O)[O-] (some centres undefined) | 11%[5.75 µM] |

Fetched by structure from above (five):
SMILES	AmpC nodet inh
COc1ccc(OC)c(CNC(=O)COc2cc(=O)n(C)c3ccccc23)c1	63%
Cc1ccc(C(C(=O)NC2CCCC2)N(Cc2cccnc2)C(=O)c2snc(C(N)=O)c2N)o1 (centres undefined)	27%
O=C1C2CCCN2C(c2ccccc2)N1c1nccs1 (centres undefined)	0%
Cn1cccc1-c1nc2ccc(NC(=O)c3cccs3)cc2[nH]1	-14%
CCN(CCCn1c(=S)[nH]c2ncccc2c1=O)c1ccccc1	-22%

Other entries
SMILES	AmpC nodet inh
Cc1cccc(N(C(=O)CNC(=O)c2ccco2)C(C(=O)NC2CCCC2)c2cccnc2)c1 (centres undefined)	26%
O=C1C2=C(Nc3cc([N+](=O)[O-])ccc3N2)O[C@@H]1c1ccc([C@H]2OC3=C(Nc4ccc([N+](=O)[O-])cc4N3)C2=O)cc1	-5%[5.75 µM]
CC(C)(C)n1ncc2c(=O)n(CC(=O)N3CCCc4ccccc43)cnc21	14%
CC[N+](CC)(CC)CC[C@](O)(c1ccccc1)C1CCCCC1	6%[12.8 µM]
CCOc1ccc(NC(=O)C2CC(=O)N(c3cc(C)cc(C)c3)C2)cc1 (centres undefined)	28%
NC1CCN(c2cccc(Cl)n2)CC1	34%&9%
Cc1cc(C)nc(NCCCc2ccccc2)n1	-3%
COc1cccc(NC(=O)CN(c2ccc(C)cc2)S(=O)(=O)c2c(C)nn(C)c2C)c1	103%
COCc1c(C(=O)OCC(=O)N2c3ccccc3NC(=O)C2(C)C)oc2ccccc12	24%
O=C(CN1C(=O)CCS(=O)(=O)c2ccccc21)Nc1cccc(Cl)c1	32%
COc1ccc(-c2nnc3n2N=C(c2ccccc2)CS3)cc1OC	-11%
CCOC(=O)C1C(=O)CC(C)(O)C(C(=O)OCC)C1/C=C/c1ccccc1 (centres undefined)	33%
CCc1ccc(N/C(SCc2cccc(F)c2)=C(/C#N)C(=O)NCc2ccco2)cc1	-18%
Cc1ccc(C[C@H](Cc2nc3ccccc3[nH]2)c2nc3ccccc3[nH]2)cc1	-10%
Cc1cc2c(cc1S(N)(=O)=O)S(=O)(=O)CCC2	-8%[12.8 µM]
COc1ccccc1Nc1ncccc1C(=O)O	-17%
CCN(C(=O)CSc1nncs1)c1c(N)n(Cc2ccccc2)c(=O)[nH]c1=O	-10%
CCN(CCCNC(=O)C1CCC(=O)N1C1CCCC1)c1cccc(C)c1 (centres undefined)	85%
O[C@@H](c1cc(C(F)(F)F)nc2c(Cl)cc(Cl)cc12)[C@@H]1CCCCN1	-10%[5.75 µM]
O=C(c1ccc2c(c1)[nH]c(=S)n1c3ccccc3nc21)N1CCN(c2ncccn2)CC1	0%
O=C(O)CSCc1cnn(-c2ccccc2)c1-n1cccc1	-13%
CNc1cc(OC)c(C(=O)N[C@@H]2CCN(Cc3ccccc3)[C@H]2C)cc1Cl	74%
O=C(O)C1CCCN1S(=O)(=O)c1ccc2c(c1)CCC2 (centres undefined)	-18%
CCOc1ccc(CNC(=O)C2CCCN(S(C)(=O)=O)C2)cc1OC (centres undefined)	5%
Cc1cc(C)nc(/N=C2/NC(=O)CS2)n1	-8%

Two of these compounds in a different format:
| molecule | AmpC nodet inh |
| --- | --- |
| CCOc1ccc(NC(=O)C2CC(=O)N(c3cc(C)cc(C)c3)C2)cc1 (centres undefined) | 28% |
| NC1CCN(c2cccc(Cl)n2)CC1 | 34%&9% |

Quoted from the listing.
AmpC nodet inh, CC[N+](CC)(CC)CC[C@](O)(c1ccccc1)C1CCCCC1 is entered as 6%[12.8 µM]
AmpC nodet inh, COc1cccc(NC(=O)CN(c2ccc(C)cc2)S(=O)(=O)c2c(C)nn(C)c2C)c1 is entered as 103%
AmpC nodet inh, COc1ccccc1Nc1ncccc1C(=O)O is entered as -17%

Carrying on:
SMILES	AmpC nodet inh
c1ncc(-c2ccc3c(c2)OCO3)c(NCCc2cnc[nH]2)n1	-7%
CCC1(N(C(C)=O)c2ccc(OC)cc2)C(=O)c2ccccc2C1=O	49%
CC1(C(=O)NCc2ccccn2)C=CCN1C(=O)c1ccccc1 (centres undefined)	1%
CC(C)CCn1c(CN2CCN(Cc3ccccc3)CC2)nc2c1c(=O)[nH]c(=O)n2C	108%
Cc1cc(OCCOCCN2CCCC2)ccc1C(C)C	22%
Cc1cc(C)nc(SCc2cccc(C(=O)O)c2)n1	-8%
CCOC(=O)C1CCCCN1C(=O)CCc1c(C)nc2cc(-c3ccccc3)nn2c1C (centres undefined)	36%
CCOC(=O)c1nc(-c2ccccc2)oc1N(C)C	30%
O=C(C(Cc1ccccc1)N1C(=O)C2C3C=CC(C3)C2C1=O)N1CCCCC1 (centres undefined)	52%
Cc1nc2ccccn2c1/C(O)=C1\C(=O)C(=O)N(CCCN(C)C)C1c1ccc(Cl)cc1 (centres undefined)	16%
Cn1c(SCC(=O)NCCN2C(=O)CSC2=O)nc2ccccc2c1=O	4%
COc1ccc(CCNC(=O)Cn2cnc3c(nnn3Cc3ccccc3F)c2=O)cc1OC	47%
O=C(N1CCOCC1)C1(c2ccccc2)CCCCC1	11%
CCn1cc(Br)c(C(=O)NCc2ccco2)n1	-12%
c1ccc(Nc2nn[nH]n2)cc1	-8%
O=C(Nc1ccc2oc(=O)ccc2c1)c1ccco1	-2%
CCc1cc(C(N)=S)ccn1	-3%
O=C(CSc1nc2ccccc2c(=O)n1CCC(=O)N1CCCCC1)NCc1ccccc1	101%
CCCc1cc(=O)oc2cc(C)cc(OC(=O)c3ccco3)c12	1%
Oc1ccc(Br)cc1CN1CCN(c2ccccc2)CC1	-6%
CCOC(=O)C1CCN(C(=O)c2n[nH]c(=O)c3ccccc23)CC1	7%
CC(C)(C)CC(=O)Nc1nnc(-c2cccs2)s1	-8%
O=c1[nH]c(CSc2nnc(NCCCN3CCOCC3)s2)nc2cc(Cl)ccc12	24%
O=S(=O)(NCCc1csc(-c2cccnc2)n1)c1ccc2c(c1)OCCO2	-5%
CN(C)c1ncnc2ccc(-c3ccccc3C#N)cc12	3%
The listing continues:
SMILES	AmpC nodet inh
COc1cc(OC)c(NC(=O)c2c(-c3ccccc3)noc2C)cc1Cl	-11%
Cc1cc(NC(=O)C2CCN(S(=O)(=O)Cc3ccccc3)CC2)ccc1-n1cnnn1	2%
CCOc1cc2oc(=O)c3c(c2cc1Cl)CCC3	8%
COc1ccccc1-c1nc(-c2ccc(C)nc2OC)no1	27%
Cc1ccc(N(CC(=O)NCc2ccc3c(c2)OCO3)S(=O)(=O)c2c(C)noc2C)cc1	14%
Cc1ccc(C)c(OCCCC(=O)Nc2ccc(N3CCOCC3)cc2)c1	24%
C=C(N(C)C)[C@]1(C)C[C@H]1[C@H](NC(=O)CNC(=O)OCc1ccccc1)c1ccccc1	77%
C[C@H](NC(=O)Nc1ccccc1F)C(=O)O	-4%
CCc1n[nH]c2c1/C(=N\O)CC(C)(C)C2	0%
CCOC(=O)/C(C#N)=C1/C=CN(c2ccccc2)C=N1	-5%
c1nc[nH]n1	1%
COc1ccc(NC(=O)CSc2[nH]c(=O)cc(C)c2C#N)cc1OC	2%
N#CC1=C(N)Oc2c(oc(CO)cc2=O)C12C(=O)Nc1ccc(Cl)cc12 (centres undefined)	7%
O=C(Nc1ccc(Cl)c(Cl)c1)N1CC=CCC1	-15%
Cc1cc(C)cc(NC(=O)C2CCCN(c3nccc(C)n3)C2)c1 (centres undefined)	55%
Cc1onc(-c2ccccc2Cl)c1C(=O)NCc1ccccn1	8%
Cc1nc(SCC#N)c2c3c(sc2n1)CCC3	4%
S=C1SCN(CCN2CCOCC2)CN1Cc1ccccc1	-5%
COc1ccc(C)cc1S(=O)(=O)N1CCN(S(=O)(=O)c2cc(C)ccc2OC)C(C)C1 (centres undefined)	116%
Cc1cc(C(=O)CN2C(=O)NC(c3ccccc3)(c3ccccc3)C2=O)c(C)n1Cc1ccco1	-4%
C=CCn1cc(C(=O)NCc2ccco2)c(=O)c2cc(S(=O)(=O)N3CCCCCC3)ccc21	116%
O=C(CNC(=O)c1cccs1)NCCN1CCN(Cc2ccccc2)CC1	-4%
C=CCSc1nnc(Cc2cc(=O)[nH]c(=O)[nH]2)n1-c1cc(C)ccc1C	4%
COc1cc(NC(=O)c2cc(C(C)C)on2)cc(OC)c1OC	24%
Cc1c(-c2ccc(Cl)cc2)noc1C1CCN(CCc2ccccc2)CC1	11%
Next section.
SMILES	AmpC nodet inh
O=C(Nc1ccccc1N1CCOCC1)c1ccc2c(c1)C(=O)N(Cc1ccncc1)C2=O	100%
CCOC(=O)C(NC(=O)Nc1ncccn1)(Oc1ccccc1)C(F)(F)F (centres undefined)	6%
O=C(COc1ccc(F)cc1)Nc1nccs1	-3%
COC(=O)c1ccnc(/C=N/O)c1	4%
CCc1nc(N2CCN(c3nc(C)cc(C)n3)CC2)c2oc3ccccc3c2n1	60%
CCOc1cc(C)nc(N2CCC(C(=O)Nc3ccccc3OCC)CC2)n1	50%
COc1ccc(S(=O)(=O)NC(C)C(=O)Nc2cccc(C(C)=O)c2)cc1 (centres undefined)	-17%
CN=C(N)/N=C(\N)Nc1cc2ccccc2c2ccccc12	-8%[5.75 µM]
Cc1ccc(-c2c3c(=O)n(C)c(=O)n(C)c3c3nnc4ccccc4n23)cc1	10%
CC(C)N(C(=O)COC(=O)c1ccccc1C(=O)N1CCN(c2ccc(F)cc2)CC1)C(C)C	97%
Cc1cc(Nc2ncc(Cl)cc2Cl)n(-c2ccccn2)n1	6%
O=C1C=C(NCc2ccco2)CC(c2ccc(Cl)cc2)C1 (centres undefined)	-2%
Cc1ccn2cc(C(=O)NC3CCN(Cc4ccccc4)CC3)nc2c1	1%
O=P(O)(O)C(O)C(F)(F)C(F)(F)C(F)(F)C(F)F (centres undefined)	4%
Cc1cc(OC(=O)N2CCCCC2)cc(C)c1Cl	6%
COc1ccc(Cc2nnc(NC(=O)Cc3cccs3)s2)cc1OC	13µM*
COC(=O)c1ccccc1NC(=O)CSc1nnc(CNS(=O)(=O)c2ccc(C)cc2)n1C	63%
COc1cc2nc3c4ccccc4n(CC#N)c3nc2cc1OC	-13%
COc1ccc(S(=O)(=O)Cc2ccc(C(=O)N3CCc4ccccc4C3)o2)cc1	3.2µM*[single pt active]
O=C(O)C1C(c2ccccc2)C(C(=O)Oc2ccc(O)cc2)C1c1ccccc1 (centres undefined)	-6%
CCC(Sc1ccccn1)C(=O)Nc1nnc(C)s1 (centres undefined)	6%
O=c1cc(Nc2ccc3c(c2)OCCO3)[nH]c(=O)n1C1CCCCC1	?
